DUX4 inh: DUX4-mediated transcription inhibition | 293T-iDUX4 ZSCAN4-Gaussia luciferase reporter, 24 h; hits give low values | activity change, negative = inhibition, % (concentration not given with the values) | 37,000 tested, 0.8% active | AID 1224904;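 active = -10% or lower and over 25 points stronger than a control reporter; inconclusive = -10% or lower with a smaller gap; inactive = above -10%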;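 note: 0% = median of neutral control wells and -100% = median of positive control wells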
DUX4 inh difference: recorded beside DUX4 inh, whose call it bears; Gaussia minus Italica difference, %; measured here: selective DUX4 reporter inhibition;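 worked out from the two reporters; negative = selective loss of the DUX4 reporter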
DUX4 inh control: further read-out of DUX4 inh, marked with its call; activity change, negative = inhibition, %; measured here: Italica tet-on control reporter;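 0 = neutral control and -100 = positive control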
Active calls of the source: *; u = inconclusive; x = not tested or not shown.

SMILES	DUX4 inh	DUX4 inh difference	DUX4 inh control
CN(C)CC(=O)N1[C@@H](C#N)[C@@H](c2ccc(-c3ccc(C(=O)N(C)C)cc3)cc2)[C@@H]1CO	1	-1	2.5
COCC(=O)N1[C@H](CNC(=O)c2ccccn2)[C@H](c2ccccc2)[C@@H]1CO	-1	-3	1.7
CC1C=NC(S(=O)(=O)N2CC[C@H]3[C@@H](CO)N(C)c4ccc(C#Cc5ccccc5)cc4[C@H]32)=N1 (some centres not stated)	2	-21	23
C[C@@H]1CN([C@@H](C)CO)S(=O)(=O)c2ccc(C#CC3(O)CCCC3)cc2O[C@@H]1CN(C)C(=O)Nc1cccc(F)c1	-4	-8	4.0
O=C([C@@H]1[C@@H](CO)[C@@H]2Cn3c(ccc(-c4ccccc4F)c3=O)[C@H]1N2C(=O)C1CC1)N1CCCCC1	0	0	-0.2
CS(=O)(=O)Nc1ccc2c(c1)[C@H]1C[C@@H](CC(=O)NCc3ccc(Cl)cc3)O[C@@H](CO)[C@H]1O2	7	12	-5.1
CCN1[C@@H]2c3ccc(-c4ccccc4OC)c(=O)n3C[C@@H]2[C@@H](CO)[C@@H]1C(=O)NCc1ccccc1	-4	2	-5.6
COc1ccc2c3c(n(C)c2c1)[C@@H](CO)N(Cc1ccc2c(c1)OCO2)CC31CCN(C)CC1	u	x	x
COc1ccccc1S(=O)(=O)N1CC[C@H]2[C@H](CO)Nc3ccc(-c4cccc(C#N)c4)cc3[C@H]21	u	x	x
O=C(Cc1ccncc1)N1CC[C@@H]2[C@H]1c1cc(-c3cccc(F)c3)ccc1N[C@@H]2CO	u	x	x
O=C1CNC[C@@H]2[C@H](c3ccc(C4=CCCC4)cc3)[C@@H](CO)N12	5	-15	20
C[C@@H]1CN([C@H](C)CO)C(=O)Cc2cc(NC(=O)CCCCCC(=O)Nc3ccccc3N)ccc2O[C@H]1CN(C)Cc1ccc(C(F)(F)F)cc1	-1	1	-1.6
CCS(=O)(=O)NCC[C@H]1CC[C@H](NS(=O)(=O)c2ccccc2C)[C@H](CO)O1	4	1	3.1
CC(C)CC#Cc1ccc([C@H]2[C@@H](CO)N3C(=O)CN(C(=O)c4ccccn4)C[C@H]23)cc1	5	5	0.4
CC=Cc1ccc2n(c1=O)C[C@@H]1[C@@H](CO)[C@H](C(=O)NC3CCC3)[C@H]2N1Cc1ccccc1 (mixture of isomers)	0	-1	0.1

Single records, from the list above. Order of values: DUX4 inh | DUX4 inh difference | DUX4 inh control
CCN1[C@@H]2c3ccc(-c4ccccc4OC)c(=O)n3C[C@@H]2[C@@H](CO)[C@@H]1C(=O)NCc1ccccc1 across the screens: -4 | 2 | -5.6
CCS(=O)(=O)NCC[C@H]1CC[C@H](NS(=O)(=O)c2ccccc2C)[C@H](CO)O1 across the screens: 4 | 1 | 3.1
O=C([C@@H]1[C@@H](CO)[C@@H]2Cn3c(ccc(-c4ccccc4F)c3=O)[C@H]1N2C(=O)C1CC1)N1CCCCC1 across the screens: 0 | 0 | -0.2
CC(C)CC#Cc1ccc([C@H]2[C@@H](CO)N3C(=O)CN(C(=O)c4ccccn4)C[C@H]23)cc1 across the screens: 5 | 5 | 0.4
CC=Cc1ccc2n(c1=O)C[C@@H]1[C@@H](CO)[C@H](C(=O)NC3CCC3)[C@H]2N1Cc1ccccc1 (mixture of isomers) across the screens: 0 | -1 | 0.1

Ordered by SMILES length (falling): some entries from above
SMILES	DUX4 inh	DUX4 inh difference	DUX4 inh control
C[C@@H]1CN([C@@H](C)CO)S(=O)(=O)c2ccc(C#CC3(O)CCCC3)cc2O[C@@H]1CN(C)C(=O)Nc1cccc(F)c1	-4	-8	4.0
CS(=O)(=O)Nc1ccc2c(c1)[C@H]1C[C@@H](CC(=O)NCc3ccc(Cl)cc3)O[C@@H](CO)[C@H]1O2	7	12	-5.1
CC1C=NC(S(=O)(=O)N2CC[C@H]3[C@@H](CO)N(C)c4ccc(C#Cc5ccccc5)cc4[C@H]32)=N1 (some centres not stated)	2	-21	23

Next part
SMILES	DUX4 inh	DUX4 inh difference	DUX4 inh control
COc1ccc(CN2C[C@@H](O)COC[C@H]3O[C@@H](CC(=O)NCc4ccncn4)CC[C@@H]32)cc1	4	-6	10
COc1ccc(NC(=O)N2C[C@@H](O)COC[C@@H]3O[C@@H](CC(=O)NCc4ccccc4OC)CC[C@H]32)cc1	6	3	2.8
CCCNC(=O)N1CC2(CCN(C(=O)Nc3cccc(F)c3)CC2)c2c(n(C)c3cc(OC)ccc23)[C@@H]1CO	u	x	x
O=C(C[C@@H]1C=C[C@H](NC(=O)Nc2ccccc2F)[C@H](CO)O1)NCc1ccc(-c2ccccc2)cc1	u	x	x
CNC[C@@H]1Oc2ncc(C#CC3(O)CCCC3)cc2C(=O)N([C@@H](C)CO)C[C@@H]1C	-1	-2	0.5
N#C[C@@H]1[C@@H](c2ccccc2C2=CCCCC2)[C@H](CO)N1C(=O)Cc1ccncc1	u	x	x
COc1ccc(C#Cc2ccc3c(c2)[C@H]2[C@H](CCN2S(=O)(=O)c2ccccc2C)[C@@H](CO)N3C)cc1	u	x	x
O=C(Nc1ccc(Cl)cc1)N[C@H]1CC[C@H](CCn2cc(-c3ccccc3F)nn2)O[C@@H]1CO	4	3	1.1
N#Cc1ccc(-c2ccc3c(c2)[C@H]2[C@H](CCN2C(=O)c2ccccc2F)[C@H](CO)N3)cc1	u	x	x
O=C(c1ccncc1)N1CC(=O)N2[C@H](CO)[C@@H](c3ccc(C#CCC4CCCC4)cc3)[C@@H]2C1	-6	-6	-0.3
CCC(=O)N1CC(=O)N2[C@H](C1)[C@H](c1ccc(C#CCC(C)C)cc1)[C@@H]2CO	-3	0	-2.7
N#C[C@H]1[C@H](c2ccccc2C2=CCCCC2)[C@H](CO)N1C(=O)NC1CCCC1	u	x	x
O=C(C[C@@H]1C[C@@H]2c3cc(NC(=O)C4CCOCC4)ccc3O[C@@H]2[C@@H](CO)O1)NCc1ccc2c(c1)OCO2	6	4	1.8
CO[C@@H]1CN(C)C(=O)c2ccc(NC(=O)Nc3cccc(Cl)c3)cc2OC[C@H](C)NC[C@@H]1C	u	-3	-3.3
CO[C@@H]1CN(C)C(=O)c2ccc(NC(=O)C3CCC3)cc2OC[C@@H](C)NC[C@@H]1C	4	2	1.3
CO[C@H](CN(C)S(=O)(=O)c1ccccc1)[C@H](C)CN(C(=O)Nc1ccccc1F)[C@@H](C)CO	-2	-2	-0.1
CN(C)C(=O)C[C@@H]1C=C[C@H](NC(=O)Nc2cccc(F)c2)[C@H](CO)O1	-1	-1	0.4
O=C(c1cnccn1)N1CC[C@@H]2[C@@H](CO)Nc3ccc(-c4cccc(F)c4)cc3[C@@H]21	9	11	-1.4
O=S(=O)(c1ccccc1F)N1CC[C@H]2[C@H](CO)Nc3ccc(-c4cccc(F)c4)cc3[C@H]21	-7	-4	-3.5
CCCNC(=O)N1CC2(C1)[C@H](c1ccccc1)[C@H](CO)N2Cc1cccc(Cl)c1	-6	-3	-2.6
CCCNC(=O)N[C@H]1CC[C@@H](CCn2cc(C3CC3)nn2)O[C@@H]1CO	3	-1	3.6
CCc1csc(N2[C@H](C#N)[C@@H](c3ccc(C4=CCCC4)cc3)[C@@H]2CO)n1	-5	-4	-0.8
N#C[C@@H]1[C@H](c2ccccc2C2=CCCCC2)[C@H](CO)N1C(=O)c1cccc(F)c1	u	x	x
CCCC#Cc1ccc([C@H]2[C@H]3CN(C(=O)Nc4ccccc4F)CC(=O)N3[C@H]2CO)cc1	0	3	-3.2
C[C@H]1CN([C@@H](C)CO)S(=O)(=O)c2ccc(C3=CCCC3)cc2O[C@H]1CN(C)C(=O)c1ccccn1	-4	-3	-1.2
COc1cccc(CN(C)C[C@@H]2OCc3cn(nn3)CCCC(=O)N([C@H](C)CO)C[C@H]2C)c1	4	5	-0.5
CCCNC(=O)N1CC2(CCN(CC3CCCCC3)CC2)c2c([nH]c3cc(OC)ccc23)[C@H]1CO	-8	-15	7.2
CN1C(=O)c2cc(NC(=O)c3ccc4c(c3)OCO4)ccc2OC[C@H]2O[C@H](CC(=O)O)CC[C@@H]21	5	-2	6.5
CO[C@H]1CN(C)C(=O)c2ccc(NC(=O)C3CCCC3)cc2OC[C@H](C)N(S(C)(=O)=O)C[C@H]1C	4	5	-0.9
CN(C)C(=O)C[C@@H]1CC[C@@H]2[C@@H](COc3ccc(NC(=O)c4ccc(F)cc4)cc3C(=O)N2C)O1	-3	-3	0.2
CN(C)C(=O)c1cc2c(c(-c3cccc(C4=CCCCC4)c3)n1)[C@@H](CCO)N(S(C)(=O)=O)C2	5	0	5.1
CN1C(=O)c2cc(NC(=O)Cc3ccccc3)ccc2OC[C@H]2O[C@@H](CC(=O)NCC3CC3)CC[C@@H]21	-7	13	-20
COc1ccc2c3c([nH]c2c1)[C@H](CO)N(Cc1ccncc1)CC31CN(Cc2ccc(-c3ccccn3)cc2)C1	u	x	x
COc1ccccc1NC(=O)N1CCCCN2[C@H](CO)[C@@H](c3ccc(-c4cccc(C#N)c4)cc3)[C@H]2C1	u	x	x
CN(C)CC(=O)N1[C@@H]2Cn3c(ccc(-c4ccccc4)c3=O)[C@H]1[C@@H](C(=O)N1CCOCC1)[C@@H]2CO	u	x	x
Cc1ccccc1S(=O)(=O)N1C[C@@H](O)COC[C@H]2O[C@H](CC(=O)N3CCCCC3)CC[C@@H]21	4	1	3.2
COc1ccc(-c2ccc([C@@H]3[C@@H](CO)N4CCCCN(C(=O)c5ccc(F)cc5)C[C@H]34)cc2)cc1	-4	2	-5.9
O=C(C[C@@H]1CC[C@H]2[C@@H](COC[C@@H](O)CN2C(=O)Nc2cccc(Cl)c2)O1)N1CCCCC1	1	-5	6.0
CC=Cc1ccc2n(c1=O)C[C@H]1[C@H](CO)[C@@H](C(=O)NCc3ccccn3)N(CC3CC3)[C@@H]21 (mixture of isomers)	9	0	8.1
CN(C)C(=O)c1ccc(-c2ccc3c(c2)[C@H]2[C@H](CCN2C(=O)c2ccc4c(c2)OCO4)[C@H](CO)N3)cc1	u	x	x
C/C=C/c1cccc(-c2nc(C(=O)N3CCN(C)CC3)cc3c2[C@@H](CCO)N(C(=O)NC(C)C)C3)c1	-2	3	-4.7
COCC(=O)Nc1ccc2c(c1)C(=O)N(C)C[C@@H](OC)[C@H](C)CN(Cc1ccccn1)[C@@H](C)CO2	0	-3	2.8
CC(=O)N1CCCCN2[C@H](CO)[C@H](c3ccc(-c4ccncc4)cc3)[C@@H]2C1	19	18	1.2
C[C@@H]1CN([C@@H](C)CO)C(=O)Cc2cc(NC(=O)Cc3cn(C)c4ccccc34)ccc2O[C@@H]1CN(C)S(=O)(=O)c1cccs1	0	-3	2.5
COc1ccccc1S(=O)(=O)N1C[C@@H]2N[C@H](C1)C2c1ccc(-c2ccncc2)cc1 (some centres not stated)	-5	10	-15
N#C[C@H]1[C@@H](c2ccc(C#CC3(O)CCCC3)cc2)[C@H](CO)N1C(=O)C1CC1	2	1	1.1
CNC[C@@H]1OCCCC[C@H](C)Oc2ccc(NC(=O)CCC(F)(F)F)cc2C(=O)N([C@H](C)CO)C[C@H]1C	0	-4	3.7
CC(C)CC#Cc1ccc([C@H]2[C@@H](CO)N3C(=O)CN(C(=O)Cc4ccccc4)C[C@H]23)cc1	-3	-4	1.5
CCCNC(=O)C[C@@H]1CC[C@@H]2[C@@H](COc3ccc(NC(=O)NC(C)C)cc3C(=O)N2C)O1	0	4	-4.8
CO[C@@H]1CN(C)C(=O)c2ccc(NC(=O)c3nc4ccccc4s3)cc2OC[C@@H](C)N(Cc2cccnc2)C[C@@H]1C	u	x	x
C[C@H]1CN([C@@H](C)CO)C(=O)CCCn2cc(nn2)CO[C@@H]1CN(C)Cc1cccc2c1OCCCO2	3	6	-2.5
O=C(NCc1ccccc1Cl)[C@H]1[C@H](CO)[C@H]2Cn3c(cccc3=O)[C@H]2N1C(=O)C1CCC1	5	16	-11
COc1ccc(S(=O)(=O)Nc2ccc3c(c2)CC(=O)N([C@@H](C)CO)C[C@@H](C)[C@@H](CN(C)CC2CC2)O3)cc1	0	0	0.2
COc1ccc2c3c(n(C)c2c1)[C@@H](CO)N(Cc1ccncc1)CC31CCN(C(=O)NC(C)C)CC1	19	4	15
COCC(=O)N1[C@H](CO)[C@H](c2ccccc2-c2cccc(C)c2)[C@@H]1C#N	5	-1	6.0
COC(=O)[C@@H]1[C@@H](CO)[C@@H]2Cn3c(ccc(-c4ccncc4)c3=O)[C@@H]2N1Cc1ccccc1F	2	6	-3.9
CNC(=O)C[C@H]1CC[C@@H]2[C@H](COc3ccc(NC(=O)c4cscn4)cc3C(=O)N2C)O1	-3	-2	-0.8
C[C@@H]1CN([C@H](C)CO)C(=O)c2c(c3ccccc3n2C)-c2ccccc2CO[C@H]1CN(C)C(=O)CCC(F)(F)F	10	16	-5.6
C/C=C/c1ccc([C@@H]2[C@H](CO)N(C(=O)C3CCCC3)C23CN(S(C)(=O)=O)C3)cc1	u	x	x
O=C(C[C@H]1CC[C@@H]2[C@H](COC[C@H](O)CN2CCC(F)(F)F)O1)NCC1CC1	7	5	2.2
(continued)
SMILES	DUX4 inh	DUX4 inh difference	DUX4 inh control
O=C(C[C@@H]1CC[C@H]2NC[C@@H](O)COC[C@@H]2O1)NCCc1ccccc1	14	3	11
Cc1noc(C)c1S(=O)(=O)Nc1ccc2c(c1)C(=O)N([C@H](C)CO)C[C@H](C)[C@@H](CN(C)C(=O)Nc1ccc3c(c1)OCO3)OCCCC[C@@H](C)O2	7	1	6.4
O=C(C1CCOCC1)N1C[C@H]2[C@@H](c3ccccc31)[C@@H](CO)N2Cc1ccccc1Cl	3	-2	5.6
COC(=O)[C@@H]1[C@@H](CO)[C@@H]2Cn3c(ccc(-c4ccccc4)c3=O)[C@@H]2N1Cc1cccc(F)c1	-4	6	-9.6
CCCNC(=O)Nc1ccc2c(c1)OC[C@H](C)N(C(=O)CC)C[C@H](C)[C@@H](OC)CN(C)C2=O	6	-1	7.0

Assay outcomes as filed in PubChem.

These rows are one share of the data; the hit share may differ from the screen's.
